Screening data from PubChem BioAssay.
INS promoter inh: inhibitors of insulin promoter-driven GFP, primary screen, imaging, TRM-6 cells (human fetal islet line), eGFP reporter, cell count | 130,000 compounds, 0.9% hits | reporter expression induced with tamoxifen | inhibition, % at 2 µM;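 active means inhibition above the mean plus 3 SD, with well images judged a real hit on visual review, cut at about 60% in these data, passing the limit was not always enough; inconclusive means inhibition over the cutoff but images rejected on review; inactive means inhibition not above the cutoff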
GALR2 ag: GALR2 receptor agonists, primary screen, cell-based | 140,000 compounds, 0.48% hits | activation, %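 (tested at 5 µM)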 | AID 803, 2007 | GALR2-expressing cells, agonist activation read-out | Galanin receptor type 2 (Homo sapiens), O43603;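 active means above mean plus 3 SD of all compounds, about 5% in these data, not always enough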;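 further: 0% = vehicle buffer wells and 100% = reference agonist at full effect; tested in CHO reporter cells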
PKD1 kinase inh: inhibitors of human PKD1 kinase, biochemical, fluorescence polarization; Serine/threonine-protein kinase D1 (Homo sapiens), Q15139; PKD1 kinase fluorescence polarization assay; inhibition, %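 (about 10 µM by stock and volumes)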; 200,000 compounds, 0.056% hits; AID 797, 2007;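 active means inhibition of 50% or more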;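 further: controls were vehicle for no effect and a reference inhibitor for full effect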
Target sequence (Q15139 whole entry, looked up): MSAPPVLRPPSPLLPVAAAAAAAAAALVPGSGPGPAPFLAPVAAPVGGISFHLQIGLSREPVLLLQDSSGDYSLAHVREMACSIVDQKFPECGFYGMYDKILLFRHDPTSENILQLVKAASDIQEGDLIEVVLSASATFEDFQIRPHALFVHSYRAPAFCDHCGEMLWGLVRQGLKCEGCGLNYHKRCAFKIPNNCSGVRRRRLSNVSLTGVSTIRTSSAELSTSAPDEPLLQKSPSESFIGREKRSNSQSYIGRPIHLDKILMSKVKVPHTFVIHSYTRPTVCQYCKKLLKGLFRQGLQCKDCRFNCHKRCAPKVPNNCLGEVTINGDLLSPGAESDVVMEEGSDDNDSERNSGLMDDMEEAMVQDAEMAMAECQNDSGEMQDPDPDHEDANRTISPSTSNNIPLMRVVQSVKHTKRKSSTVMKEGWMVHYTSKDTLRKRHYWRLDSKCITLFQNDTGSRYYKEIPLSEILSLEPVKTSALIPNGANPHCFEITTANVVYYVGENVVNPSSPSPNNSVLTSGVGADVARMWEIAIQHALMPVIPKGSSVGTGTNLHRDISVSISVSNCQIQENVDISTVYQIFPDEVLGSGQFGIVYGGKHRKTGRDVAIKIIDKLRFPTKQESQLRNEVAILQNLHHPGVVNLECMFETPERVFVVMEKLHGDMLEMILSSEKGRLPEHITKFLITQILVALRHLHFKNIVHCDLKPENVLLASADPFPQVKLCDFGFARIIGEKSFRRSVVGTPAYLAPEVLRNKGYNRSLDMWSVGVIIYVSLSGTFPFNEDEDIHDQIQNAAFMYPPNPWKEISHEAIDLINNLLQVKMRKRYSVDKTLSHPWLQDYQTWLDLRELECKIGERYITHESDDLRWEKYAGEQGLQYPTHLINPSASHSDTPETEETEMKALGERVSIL
HSV replic up: enhancers of HSV replication in host cells, fold increase, host cell viability; HSV replication augmentation in cells; maximum fold increase; 220,000 compounds, 0.005% hits; AID 1956, 2009;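 active means peak rise of 1.5-fold or more in the series; inconclusive means self-fluorescent or not available for retest; tested in PC3 cells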;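 further: first round at 10 µM; read as green reporter fluorescence; hits show the peak of a series up to 25 µM; 1 = signal of infected wells without compound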
RGS16-Gao: modulators of RGS16 binding to Galphao, primary screen, biochemical, human proteins, multiplexed bead flow cytometry; bead-based flow cytometry RGS16-Galphao binding, fluorescence; actives lie on both sides; 220,000 compounds, 0.38% hits; Regulator of G-protein signaling 16 (Homo sapiens) + Guanine nucleotide-binding protein …; AID 1441, 2008; binding response (% of control), % at 10 µM;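 active means below 25% or above 175%, edge rows of some plates excepted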;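 further: Galphao activated by GDP with aluminum fluoride before binding; 100% = wells without compound and 0% = beads without RGS; some results beyond the cut were filed as inactive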
INS promoter inh cell count: also measured in INS promoter inh; calls as there; normalized cell count, %; measured here: cell count, toxicity; reference of the scale not given here;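 cells exposed to compound for 48 h; stained nuclei by imaging scaled within each plate; lower means fewer cells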
HSV replic up primary fold: recorded beside HSV replic up, whose call it bears; fold increase; compound at 10 µM; measured here: primary screen fold increase 10 uM; tested in PC3 cells;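 GFP signal in the first replicate; 1 = infected wells without compound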
Active calls of the source: *; i = inactive; ? = inconclusive; . = no result given.

SMILES	INS promoter inh	INS promoter inh cell count	GALR2 ag	PKD1 kinase inh	HSV replic up	HSV replic up primary fold	RGS16-Gao
COc1ccc(C2C(C(C)=O)=C(Nc3ccccc3)CC(C)(O)C2C(C)=O)cc1OC (stereo unspecified)	-215	93	-0.7	-1	i	0.88	97
Cc1nnc(SCC(=O)NCC(=O)Nc2ccc(F)c(F)c2F)n1Cc1ccccc1	.	.	.	1	i	1	96
C/C(Cl)=C/Cn1c(SC(C)C)nc2c1c(=O)[nH]c(=O)n2C	.	.	1.3	-9	i	1.1	91
CC(NC(=O)c1ccnn1C)C1CCCO1 (stereo unspecified)	.	.	.	-2	i	0.89	101
O=c1n(Cc2ccccc2)nc2n1-c1ccccc1SC2	.	.	.	.	i	0.93	93
COc1ccc(/C=N/NC(=O)c2cccc(NC(=O)c3ccc(Cl)cc3)c2)c(OC)c1	-13	149	-0.5	4	i	0.84	106
CNc1nc(SCc2ccccc2)nc(N2CCOCC2)n1	-32	158	-1.2	-5	i	0.97	100
CC1CCCC(n2c(=S)[nH]c3ccccc3c2=O)C1C (stereo unspecified)	7	24	0.4	4	i	0.69	101
CC1CCN(CC(=O)N2c3ccccc3CC2C)CC1 (stereo unspecified)	.	.	.	0	i	1	103
COc1ccc(S(=O)(=O)C(C#N)c2nc3ccccc3nc2N2CCCCC2)cc1 (stereo unspecified)	.	.	-2.1	-9	?	.	100
O=P(c1cccs1)(c1cccs1)c1cccs1	.	.	1.5	4	i	0.89	98
COCCNC(=O)c1ccccc1N(Cc1ccccc1)S(=O)(=O)c1ccc(C)cc1	-56	71	.	-3	i	1	104
CCSc1nc2c(c(=O)[nH]c(=O)n2C)n1Cc1ccc(Cl)cc1	15	94	-2.9	-9	i	0.87	104
O=C(CCN1CCN(CCO)CC1)Nc1ccc(C2CCCC2)cc1	.	.	.	-6	i	0.89	102
COc1ccc(-c2ccn(-c3cccc(F)n3)n2)cc1	.	.	.	1	i	0.92	93
CC(C)NC(=O)COC(=O)/C=C/c1ccco1	23	116	-0.4	0	i	0.97	96
Cc1ccc2cc(COC(=O)c3ccco3)c(=O)[nH]c2c1	46	138	-1.3	-3	i	0.96	103
COC(=O)C(CCSC)NS(=O)(=O)c1ccc(Cl)cc1 (stereo unspecified)	0	77	.	-4	i	1	110
CCOCc1nnc(NC(=O)c2cccs2)s1	-40	122	-3.7	-3	i	0.85	103
Cc1cc2nc(-c3ccco3)cc(C(F)(F)F)n2n1	.	.	-0.5	-4	i	1.1	100
CCn1c2ccccc2c2cc(NC(=O)COC(=O)C3CCC(=O)N3)ccc21 (stereo unspecified)	6	60	-0.4	-11	i	0.81	114
O=c1cc(N2CCN(c3cccc(Cl)c3)CC2)[nH]c(=O)n1C1CCCCC1	14	127	-2.6	0	i	0.76	94
CCOC(=O)C1CCCN(C(=O)CNS(=O)(=O)c2ccc(Br)s2)C1 (stereo unspecified)	-25	111	0.1	-3	i	0.68	103
Cn1c(N)c(C(=O)COC(=O)c2ccco2)c(=O)n(C)c1=O	45	128	-2.9	11	i	1.1	101
CCOC(=O)C(=O)Nc1cc(C(=O)OC)cc(C(=O)OC)c1	.	.	.	3	i	0.99	98
CCOC(=O)C1(Cc2ccccc2)CCN(Cc2ccc3c(c2)OCCO3)CC1	.	.	.	-5	i	0.94	110
O=C(c1cc(-c2ccccn2)nc2ccc(Br)cc12)N1CCc2ccccc2C1	.	.	-1.4	-5	.	.	104
COc1cc(/C=C2/SC(=Nc3ccc(O)cc3)NC2=O)cc(OC)c1O	.	.	.	-3	.	.	100
Cc1cc2c(c(=O)n1CCN(C)C)C(c1ccccc1Br)C(C#N)=C(N)O2 (stereo unspecified)	-10	87	-0.8	-23	i	1.1	104
CCCCCc1ccc(OCCOCCn2c[n+](C)c3ccccc32)c(CCCCC)c1	-64	51	.	-2	i	0.57	101
COc1cc(/C=C/C(=O)O)cc(S(=O)(=O)N(CC(C)C)CC(C)C)c1OC	64	130	.	3	i	0.92	121
COc1ccccc1S(=O)(=O)Cc1ccc(C(=O)N2CCN(c3ccc(C)cc3)C(C)C2)o1 (stereo unspecified)	-40	77	-2.1	-2	i	0.82	102
CC(/C=C1\SC(=Nc2cccnc2)NC1=O)=C\c1ccccc1	.	.	.	.	i	0.94	99
Cc1ccc(S(=O)(=O)N2CCCN(S(=O)(=O)c3ccc4c(c3)OCCO4)CC2)cc1	.	.	1.6	-9	i	1.1	66
CC1(C)CC(=O)c2sc(NC(=O)c3ccco3)nc2C1	.	.	-0.4	1	i	0.9	105
O=C(Nc1ccc2c(c1)C(=O)N(CC1CCCO1)C2=O)c1cccc(Br)c1 (stereo unspecified)	-33	29	-1.6	8	i	0.87	103
COC(=O)COc1ccc(S(=O)(=O)Nc2ccc(C(N)=O)cc2)cc1Cl	-20	94	-0.5	-6	i	0.85	144
COc1cc(OC)cc(C(=O)N[C@H](C(=O)OCC(=O)Nc2ccc(F)c(F)c2)C(C)C)c1	-7	70	-0.8	12	i	0.98	101
Cc1nnc(Nc2ccc(C(=O)N3CCOCC3)cc2)c2ccccc12	6	62	-0.3	-3	i	0.98	96
O=C(c1sc2cc([N+](=O)[O-])ccc2c1Cl)N1CCOCC1	3	89	-1.1	-10	i	1	65
O=C(Nc1cc(-c2nn(CC(=O)N3CCCCC3)c(=O)c3ccccc23)ccc1N1CCOCC1)c1ccc(Cl)cc1	-40	101	-1.1	0	i	0.87	101
COc1ccc(Nc2ncnc3c2cnn3Cc2ccccc2)cc1OC	.	.	-2.0	2	i	1.1	94
COC(=O)c1[nH]c2ccccc2c1NC(=O)CCN1CCSCC1	.	.	-1.1	-13	i	0.91	103
COCCn1c(=S)[nH]c2cc(C(=O)N3CCN(c4ccccc4OC)CC3)ccc2c1=O	-21	121	-0.5	-5	i	1	101
N=C1/C(=C/c2cccs2)C(=O)N=C2SN=C(SCc3ccccc3)N12	27	107	-1.3	11	i	0.71	103
O=C(CN1CCN(C(=O)c2ccco2)CC1)Nc1ccccc1-c1ccccc1	.	.	1.4	-14	i	1	102
CCC(=O)Oc1ccc(NC(=O)CSCc2ccccc2)cc1	.	.	.	3	i	0.74	102
CCCN1C(=O)S/C(=C\c2ccc(N3CCOCC3)o2)C1=O	.	.	.	-5	i	0.93	102
CCC(C)NCCCCOc1ccc(Cl)cc1C (stereo unspecified)	-14	121	0.7	-6	i	0.84	109
NC(=S)N/N=C/c1cn(-c2ccccc2)nc1-c1cccnc1	.	.	.	.	i	1	99
COc1ccccc1OS(=O)(=O)c1ccc(NC(C)=O)cc1	.	.	.	-2	i	1	103
Cc1cc(/C([O-])=C(/C(=S)Nc2ccc(F)cc2)[n+]2ccccc2)c(C)n1Cc1ccccc1Cl	.	.	.	-2	i	1	101
CC(NS(=O)(=O)c1ccccc1)C(=O)NCCc1ccccn1 (stereo unspecified)	.	.	.	2	i	0.87	99
COc1cccc(/C=N/NC(=O)C(=O)N/N=C/c2cccc(OC)c2OC)c1OC	0	112	0.3	-10	i	0.95	110
Fc1ccc2nc(Nc3ccccc3)sc2c1	17	208	.	-1	i	0.94	107
COc1ccccc1C(=O)Nc1ccc(N2CCCCC2)cc1	-25	100	-1.0	-1	i	0.84	109
O=C(N/N=C/C=C/c1ccccc1)NC1CCCCC1	.	.	.	9	i	0.91	102
COc1ccccc1NC(=O)CCCC(=O)OCC(F)(F)C(F)F	46	72	-3.5	1	i	0.82	106
CCOC(=O)CSc1nc(-c2ccccc2)nc2c1oc1ccccc12	10	145	-0.7	-10	i	1	94
COc1cc2c(cc1NC(=O)COc1ccccc1OC)oc1ccccc12	-3	163	-1.7	-3	i	0.89	103

Some of the entries so far, with values under each structure.
Under each structure: INS promoter inh, INS promoter inh cell count, GALR2 ag, PKD1 kinase inh, HSV replic up, HSV replic up primary fold, RGS16-Gao
Cc1nnc(Nc2ccc(C(=O)N3CCOCC3)cc2)c2ccccc12
 : 6, 62, -0.3, -3, i, 0.98, 96
O=C(c1sc2cc([N+](=O)[O-])ccc2c1Cl)N1CCOCC1
 : 3, 89, -1.1, -10, i, 1, 65
O=C(Nc1cc(-c2nn(CC(=O)N3CCCCC3)c(=O)c3ccccc23)ccc1N1CCOCC1)c1ccc(Cl)cc1
 : -40, 101, -1.1, 0, i, 0.87, 101
COc1ccc(Nc2ncnc3c2cnn3Cc2ccccc2)cc1OC
 : ., ., -2.0, 2, i, 1.1, 94
COC(=O)c1[nH]c2ccccc2c1NC(=O)CCN1CCSCC1
 : ., ., -1.1, -13, i, 0.91, 103
COCCn1c(=S)[nH]c2cc(C(=O)N3CCN(c4ccccc4OC)CC3)ccc2c1=O
 : -21, 121, -0.5, -5, i, 1, 101
N=C1/C(=C/c2cccs2)C(=O)N=C2SN=C(SCc3ccccc3)N12
 : 27, 107, -1.3, 11, i, 0.71, 103
O=C(CN1CCN(C(=O)c2ccco2)CC1)Nc1ccccc1-c1ccccc1
 : ., ., 1.4, -14, i, 1, 102
CCC(=O)Oc1ccc(NC(=O)CSCc2ccccc2)cc1
 : ., ., ., 3, i, 0.74, 102
CCCN1C(=O)S/C(=C\c2ccc(N3CCOCC3)o2)C1=O
 : ., ., ., -5, i, 0.93, 102
CCC(C)NCCCCOc1ccc(Cl)cc1C (stereo unspecified)
 : -14, 121, 0.7, -6, i, 0.84, 109
NC(=S)N/N=C/c1cn(-c2ccccc2)nc1-c1cccnc1
 : ., ., ., ., i, 1, 99
COc1ccccc1OS(=O)(=O)c1ccc(NC(C)=O)cc1
 : ., ., ., -2, i, 1, 103
Cc1cc(/C([O-])=C(/C(=S)Nc2ccc(F)cc2)[n+]2ccccc2)c(C)n1Cc1ccccc1Cl
 : ., ., ., -2, i, 1, 101
CC(NS(=O)(=O)c1ccccc1)C(=O)NCCc1ccccn1 (stereo unspecified)
 : ., ., ., 2, i, 0.87, 99
COc1cccc(/C=N/NC(=O)C(=O)N/N=C/c2cccc(OC)c2OC)c1OC
 : 0, 112, 0.3, -10, i, 0.95, 110
Fc1ccc2nc(Nc3ccccc3)sc2c1
 : 17, 208, ., -1, i, 0.94, 107
COc1ccccc1C(=O)Nc1ccc(N2CCCCC2)cc1
 : -25, 100, -1.0, -1, i, 0.84, 109
O=C(N/N=C/C=C/c1ccccc1)NC1CCCCC1
 : ., ., ., 9, i, 0.91, 102

Next records follow.
SMILES	INS promoter inh	INS promoter inh cell count	GALR2 ag	PKD1 kinase inh	HSV replic up	HSV replic up primary fold	RGS16-Gao
COc1ccc(C(=O)NCCc2nnc(SCC(=O)Nc3ccccc3)n2C)cc1	-92	62	-0.3	-14	i	0.93	104
O=C(ON=C1CCN(S(=O)(=O)c2ccccc2)CC1)c1ccccc1	-8	36	-0.1	-4	i	0.79	105
CC(CC(=O)O)CC1=NS(=O)(=O)c2ccccc2N1 (stereo unspecified)	.	.	-0.8	-14	i	0.82	101
CCCCn1c(N)c(N(CCOC)C(=O)CSc2nc3ccc(C)cc3[nH]2)c(=O)[nH]c1=O	-171	41	-1.3	-8	i	1.1	104
CC(=O)O[C@H]1CC[C@]2(C)[C@H]3CC=C4[C@@H]5[C@@H](C)[C@H](C)CC[C@]5(C(=O)O)CC[C@@]4(C)[C@]3(C)CC[C@H]2C1(C)C	.	.	.	.	i	0.92	105
COc1ccc2c(c1)C=C([C@@H]1C[C@H]3CN(c4ccccc4)C(=O)[C@]34CCCN14)CO2	.	.	.	-6	i	0.98	100
CCNc1nc(ON=C(C)C)nc(N(C)C)n1	10	139	-0.3	-4	i	0.96	105
C=CCNC(=O)/C(C#N)=C/c1cc(Br)ccc1OC	.	.	.	-6	i	0.97	114
CCOC(=O)C(CC)Sc1nc2c(c(=O)[nH]c(=O)n2C)n1CCc1ccccc1 (stereo unspecified)	.	.	-0.7	2	i	0.86	103
O=C(CCC(=O)NC1CCCCC1)N/N=C/c1ccncc1	29	145	.	1	i	0.9	105
Cc1cccc(C)c1NC(=O)CSc1ccc([N+](=O)[O-])cn1	-77	95	-0.1	-6	i	0.99	106
O=C(CCSc1nnnn1-c1ccccc1)N1CCOCC1	2	94	-0.8	6	i	0.98	100
